Bioassay records deposited in PubChem BioAssay by Fisher Drug Discovery Resource Center.
NPYLR7 agonist – activates Aedes aegypti NPYLR7 receptor; HEK293T NPYLR7/Galpha15, GCaMP6s calcium fluorescence; activation, % at 10 µM; actives 0.15% (n = 270,000); in the data active means activation above about 40%;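 further: 0% = vehicle and 100% = reference agonist at the receptor; some compounds past the cut are filed as inactive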
NPYLR7 agonist max-min – also measured in NPYLR7 agonist; calls as there; activation, %; measured here: Max-Min RFU normalised activation; some inactives read as strong as hits;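 span of the calcium signal over five minutes; 0% = vehicle and 100% = native peptide agonist; compound fluorescence can raise it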
Active calls of the source: *; & = joins results of further samples. An excerpt (hit frequency here may not be typical).

SMILES	NPYLR7 agonist	NPYLR7 agonist max-min
Cc1ccc(NC(=O)N2CCC3(CC2)SCCN3C(=O)c2ccccc2C)cc1C	11	19
C=C(C)CSc1nc2c(c(=O)[nH]c(=O)n2C)n1Cc1ccccc1Cl	29	29
O=C(CSc1nc2c(cnn2CCO)c(=O)[nH]1)Nc1ccc2c(c1)OCCO2	5	3
C=CCSc1nnc(NC(=O)CCNC(=O)c2ccco2)s1	-5	-6
Cc1cc(C(O)c2ncc(-c3ccccc3F)[nH]2)ccc1F (stereo not drawn)	3	4
O=C(NC1CCCC1)c1cnn2c(C(F)(F)F)cc(-c3ccc4c(c3)OCO4)nc12	0	0
COc1cc(CN2CCC(Cc3ccc(-c4ccccc4)cc3)CC2)cc(OC)c1	1	11
Cc1cc(C(=O)N2CCN(C(=O)c3ccccc3)CC2)cc(=O)[nH]1	13	12
CC(C)COc1ccc(CC(=O)OC2CCSC2)cc1 (stereo not drawn)	15	12
O=C(c1ccc(F)cc1)N(Cc1nccn1Cc1cccc(Cl)c1)CC1CC1	-5	-5
COC(=O)C(C)(C)c1ccc(NS(=O)(=O)c2ccc(C)s2)cc1	3	2
CC(C)(C)c1nc(C(C)(C)NC(=O)/C=C/c2ccc(C#N)cc2)no1	7	6
CS(=O)(=O)N1CCCCC1C(=O)N1CCN(c2ncccn2)CC1 (stereo not drawn)	-2	-3
CC(=O)OCC(=O)Nc1ccc2nc(Cc3ccccc3)nn2c1	-11	-12
Cc1csc2nc(O)c(C(=O)NCCO)c(=O)n12	14	27
N=C1OC(c2ccc(Br)cc2)C(=O)C1O (stereo not drawn)	4	4
CCCCN(Cc1ccc(F)cc1)C(=O)C1(N)CC1	4	2
Cc1cc(NCC2CCCO2)n2nc(C(F)(F)F)c(-c3ccccc3Cl)c2n1 (stereo not drawn)	1	-5
Cc1ccc(C(=O)N2CCCC(CNC(=O)c3ccc(F)cc3)C2)cc1C (stereo not drawn)	11	8
Cc1ccc2ncn(C3CCN(C(=O)c4ccccc4F)CC3)c2c1	4	-1
Nc1n[nH]c(C(F)(F)F)c1-c1ccc(Cl)cc1	8	5
O=C(c1ccccc1)N(Cc1cccnc1)c1nc2c(F)cccc2s1	-5	-5
COc1ccc2c(c1)C(C)(Cc1cc(OC(F)(F)F)ccc1OC)C(=O)N2 (stereo not drawn)	1	1
CN(C)c1nc2c(c(N(C)C)n1)CCN(C(=O)CCc1cc(=O)[nH]o1)C2	6	2
CCCN(CC1COc2ccccc2O1)S(=O)(=O)c1ccc(C#N)cc1 (stereo not drawn)	-1	1
O=C(NCc1ccco1)c1cnc2ccccn2c1=O	5	5
CC(O)CN1CCC(CN(C)c2nccc(C(F)(F)F)n2)CC1 (stereo not drawn)	7	3
CS(=O)(=O)c1ccc(CN2CCN3C(C(=O)NCCC(F)(F)F)=COC3=NC2=O)cc1	3	2
CNC(=O)CC(C)N(C)Cc1cc(F)c(F)c(F)c1 (stereo not drawn)	-1	1
CN(Cc1cc(C(C)(C)C)n[nH]1)c1nccc(N2CCCC(O)C2)n1 (stereo not drawn)	0	-2
CCCn1ncc(C(=O)NCCc2nc(C)c3c(n2)CCCC3)c1C	-1	-2
CCCCN(Cc1ccccc1)C(=O)c1cc(-c2cccs2)nc2cc(C)c(C)cc12	0	-4
CC1CCN(S(=O)(=O)N2CCC(C(=O)NC3CC3)CC2)CC1	3	2
C=c1c(C#N)c2[nH]c(N)c(C#N)c(C)c-2/c1=C\c1ccc(-c2cccc(Cl)c2)o1	3	11
Cc1ccc(Cc2nc(N3CCN(S(=O)(=O)Cc4ccccc4)CC3)c3c(C)nn(-c4ccccc4)c3n2)cc1	3	5
CC(=O)NCCc1cn(Cc2nc(-c3ccco3)oc2C)cn1	-7	-10
CCS(=O)(=O)N1CCC(Nc2nc3ccccc3o2)CC1	11	5
C/C(=C/C(=O)N(C)Cc1cccc(C(N)=O)c1)CCc1ccccc1	8	4
C=C1C(C)(C)[C@H]2CC[C@]1(C(=O)N1CCn3c(C(N)=O)cnc3C1)C2	1	1
N#CC(C#N)=NNc1ccc(SC(F)F)cc1	32	33
O=S(=O)(NCCOc1ccc(-c2cccs2)nn1)c1cccs1	-1	-3
CCCCC1CCC(c2cc(NC(=O)CS(=O)(=O)C(C)C)n[nH]2)CC1 (stereo not drawn)	7	6
O=C(Cn1nc2c(c1NC(=O)c1c[nH]c3ccccc13)CSC2)NCc1ccco1	-2	6
Cn1cc(Cl)c(C(=O)Nc2cccc(NC(=O)Cc3ccccc3)c2)n1	14	11
O=C(CN1CCN(S(=O)(=O)c2ccc3c(c2)CCC3)CC1)Nc1ccccc1	-1	1
COC(=O)c1c(NC(=O)c2sc(NC3CCCCC3)c(C(N)=O)c2N)sc2c1CCCC2	-2	-3
CNC(=O)C1CCN(C(=O)c2c(C)nn(CC(C)C)c2Cl)CC1	-25	-26
COc1ccc2c(c1)NC(=O)CCC2	0	36
CCCSc1cc(N2CCOCC2)nc(-c2ccccc2Cl)n1	2	6
Cc1cc(NC(=O)c2cc(C)n(C)n2)n(-c2ccccc2)n1	4	7

Next section:
SMILES	NPYLR7 agonist	NPYLR7 agonist max-min
COC1CCN(c2ccc(-c3nc(Cc4ccccc4)no3)cn2)CC1	14	5
CN(CC(O)c1ccccc1Cl)C1CCc2ccccc21 (stereo not drawn)	-2	-1
CCCCOc1ccc(C(=O)N2CCN(c3nc(CCCC)nc4c3c(C)nn4-c3ccccc3)CC2)cc1	5	8
COc1ccc(-c2ccc(N3CCCC(C(=O)Nc4ccc(C(N)=O)cc4)C3)nn2)cc1 (stereo not drawn)	-8	-15
Cc1cc(C(=O)NC2CCS(=O)C2)c(C)n1C1CCCCC1 (stereo not drawn)	3&-15	2&-17
Cc1ccc(-c2nnc(SCc3ccc(C(=O)O)cc3)n2Cc2ccccc2)cc1	10	8
O=C(CCl)NC(=O)c1cccc2ccccc12	-9	-12
CC[C@H](C)C(=O)NC(c1ccc(S(C)(=O)=O)cc1)c1ccc2c(c1)CCO2 (stereo partly drawn)	0	-6
COc1cccc(-c2nccn2CCc2cnc[nH]2)c1OC	2	2
CCOc1ccc(-n2nnnc2CNS(=O)(=O)c2cccc(C(F)(F)F)c2)cc1	-3	-6

Continued; the last 2 above are carried over.
SMILES	NPYLR7 agonist	NPYLR7 agonist max-min
COc1cccc(-c2nccn2CCc2cnc[nH]2)c1OC	2	2
CCOc1ccc(-n2nnnc2CNS(=O)(=O)c2cccc(C(F)(F)F)c2)cc1	-3	-6
Cc1cc(C)cc(-n2nc3c(c2NC(=O)Cc2cccs2)CSC3)c1	-3	-6
O=C1[C@@H]2OC[C@@H](O2)[C@H]2[C@@H]1[C@@H]1c3ccccc3C=CN1[C@H]2C(=O)c1ccccc1	18	12
CC(C)COc1nc(-c2cccc(F)c2)n(-c2ccc(NS(=O)(=O)c3ccc(F)cc3)cc2)n1	19	17
CCn1c(C)cc(O)c(C(c2ccc(OC)cc2)N2CCN(CCO)CC2)c1=O (stereo not drawn)	10	1
c1ccc(C(CNC2CSCCSC2)N2CCOCC2)nc1 (stereo not drawn)	3	2
COc1ccc(CN(C(=O)c2ccc3c(c2)OCO3)C(C)C)cc1OS(C)(=O)=O	-12	-8
CCc1nc2ccc(C(=O)NCCCN3CCCC3=O)cn2c1N(CC)CCOC	-1	-2
CCc1cc(-c2ccn[nH]2)ccc1NC(C)=O	-4	-10
N[C@H]1CN[C@H](C(=O)N2CCN(C3CCCCC3)C(=O)C2)C1	-10	-11
CN(C)c1ccc(C(=O)N2CCC(O)(c3ccc(Br)cc3)CC2)c2ccccc12	8	10
COc1cccc(OC)c1C(=O)N1CCN(c2nc(Cc3ccc(F)cc3)ns2)CC1C (stereo not drawn)	-8	-7
O=C(N[C@@H]1CCCCC1NC(=O)C1CCN(C(=O)c2cccc(F)c2)CC1)c1ccccc1 (stereo partly drawn)	1	7
Cc1nn(Cc2sc3ccccc3c2Cl)c(=O)c(C#N)c1C	11	5
CSCc1nc(CNC(=O)c2ccc3[nH]c(=O)[nH]c3c2)cs1	-3	-9
CCOc1ccc(-n2c(C(C)N(CCN(C)C)C(=O)Nc3c(C(C)C)cccc3C(C)C)nc3ccccc3c2=O)cc1 (stereo not drawn)	4	-2
Cc1cc(C)cc(-c2ccc(-n3cncc3C(=O)NCc3cccs3)cc2)c1	5	2
COC(=O)[C@@H]1C[C@@H](N(C)C)CN1Cc1cc(C(C)C)no1	7	3
COc1ccccc1CNc1nc(C)c(C(=O)N(C)C)s1	0&7	-1&2
CC(=O)C=C(O)c1c2ccccc2cc2ccccc12	-8	-17
CCN(C(=O)c1ccc(Cl)o1)C(c1cccnc1)c1nccn1C (stereo not drawn)	-10	-10

One compound at a time (already shown).
Listed for COC(=O)[C@@H]1C[C@@H](N(C)C)CN1Cc1cc(C(C)C)no1 : NPYLR7 agonist = 7; NPYLR7 agonist max-min = 3
Listed for CCN(C(=O)c1ccc(Cl)o1)C(c1cccnc1)c1nccn1C (stereo not drawn) : NPYLR7 agonist = -10; NPYLR7 agonist max-min = -10

The list continues.
SMILES	NPYLR7 agonist	NPYLR7 agonist max-min
CS(=O)(=O)NCCc1csc2nc(-c3cccc(F)c3)nn12	-1	-3
CC1C(=O)N(c2ccc(Oc3ccccc3)cc2)CCN1C(=O)C1CCC1 (stereo not drawn)	-1	2
Cc1ccc(N(C)S(=O)(=O)c2ccsc2C(=O)n2nc(C)cc2C)cc1	-2	-4
CCN(CC1CCCN(CCc2cccc(OC)c2)C1)C(=O)c1cccnc1SC (stereo not drawn)	3&1	-2&1
CC(C)(CNC(=O)c1cccc2cccnc12)N1CCOCC1	-5	-5
CNC(=O)c1ccc(NC(=O)CCC(=O)c2ccc(Cl)s2)cc1	4	2
O=C(NC1CC1)c1cc2n(n1)C(C(F)(F)F)CC(c1ccco1)N2 (stereo not drawn)	2	0
CN(Cc1cnccn1)C(=O)CC(c1ccccc1)c1ccccc1Cl (stereo not drawn)	4	1
CCCN1C(=O)c2ccccc2N(CC(=O)NC2CCN(C)CC2)C(=O)C1Cc1ccccc1 (stereo not drawn)	0	16
CN1CC(NC(=O)Nc2ccc(-c3ccn[nH]3)cc2)CCC1=O (stereo not drawn)	-19	-18
CC(NS(=O)(=O)c1ccc(C(C)(C)C)cc1)C(=O)NC1CC1 (stereo not drawn)	1	1
Cc1ccc(S(=O)(=O)N(C)C)cc1NC(=O)CCSc1ccccc1Cl	-1	-3
CCc1ccc(-c2noc(CC(O)(c3ccc(C)o3)C(F)(F)F)n2)cc1 (stereo not drawn)	8	6
CC(C)(C)C1CCC(C(=O)NCC(=O)OCc2ccccc2)CC1 (stereo not drawn)	3	2
CO[C@@H]1C[C@@H]2CC(C)(C)OC[C@@]2(O)[C@H]1N(C)Cc1cccnc1	3	10
Cc1ccc(C(=O)NCCNc2ccc(Nc3cccnc3)nn2)cc1C	-1	-2
NS(=O)(=O)c1ccc(NC(=O)CSc2nc3ccccc3c(=O)n2-c2ccccc2)cc1	-6	-9
Cc1nnc(NC(=O)NCc2cccc(CN3CCOC(C)C3)c2)s1 (stereo not drawn)	-5	-6
COc1ccccc1-c1cccc(-c2cccc(NC(=O)CCC3CCCC3)c2)n1	-7	-11
COCCCNC(=O)CSc1nc(Cl)cc(N2CCN(C(=O)c3cccc(F)c3)C(C)C2)n1 (stereo not drawn)	-2	-12

Single values from the results shown:
COc1ccccc1-c1cccc(-c2cccc(NC(=O)CCC3CCCC3)c2)n1 in NPYLR7 agonist → -7
CCc1nc2ccc(C(=O)NCCCN3CCCC3=O)cn2c1N(CC)CCOC in NPYLR7 agonist max-min → -2

Additional entries.
SMILES	NPYLR7 agonist	NPYLR7 agonist max-min
S=c1[nH]nc(-c2cccnc2)n1-c1ccc(Br)cc1	9	17
COC(=O)C1=C(C)NC(C)=C(C(=O)OC)C1c1ccc(N(C)C)cc1	3	1
CN1CCCNC(=O)C12CCN(C(=O)C(O)c1ccc(F)cc1)CC2 (stereo not drawn)	1	-4
O=C(Nc1cc(C(F)(F)F)ccc1N1CCCCC1)c1cccnc1Oc1ccc(Cl)cc1	1	-3
CC1(C(Cl)(Cl)Cl)C=CC(=Nc2ccccc2)C=C1 (stereo not drawn)	-2	4
Cc1ccncc1NS(=O)(=O)CCc1ccccc1	-21	-22
C=CCNCCCOc1c(C)cc(Cl)cc1Cl	5	11
COc1ccc([C@@H]2C[C@H](NC(C)=O)C[C@H](CC(C)C)O2)c(OC)c1OC	11	9
COC(=O)CN1C(=O)CNC12CCN(C(=O)C(C)ON=C(C)C)CC2 (stereo not drawn)	1	24
Cc1cc(C(C)NC(=O)C(C)NC(=O)OCc2ccccc2)c(C)s1 (stereo not drawn)	5	2

Looked up one by one from the entries so far (3):
SMILES	NPYLR7 agonist	NPYLR7 agonist max-min
O=S(=O)(NCCOc1ccc(-c2cccs2)nn1)c1cccs1	-1	-3
CSCc1nc(CNC(=O)c2ccc3[nH]c(=O)[nH]c3c2)cs1	-3	-9
Cc1ccc(N(C)S(=O)(=O)c2ccsc2C(=O)n2nc(C)cc2C)cc1	-2	-4

(continued)
SMILES	NPYLR7 agonist	NPYLR7 agonist max-min
NC(=O)C1CCN(c2ccc(S(=O)(=O)C(F)F)cc2)CC1	2	3
O=C(Cc1ccc(Cl)cc1)N1CCN(c2ccc(-n3cccn3)nn2)CC1	-4	-12
CCN(Cc1ccncc1)C(=O)Cn1nnnc1CN1CCCCCC1	0	-7
NC(=O)c1cc2cc([N+](=O)[O-])ccc2oc1=NCc1ccccc1	-3	-11
CC(=O)Nc1cc(NC(=O)C2(C)CC2(Cl)Cl)ccc1C (stereo not drawn)	4	9
O=C(O)CCCCCn1c(O)c(C2=c3cc(Br)ccc3=NC2=O)sc1=S	3	-2
O=C(c1cccc(Cn2cccn2)c1)N1CCCC(CO)(CCc2ccccc2)C1 (stereo not drawn)	5	2
Cc1ccc(OCCNC(=O)c2cc(=O)[nH]c3ccccc23)cc1	-2	-3
